Compound activity from PubChem BioAssay.
Rce1 inh – yeast Ras-converting enzyme inhibition | 290,000 compounds, 0.27% hits | calls only | yeast membranes, quenched prenylated peptide cleavage fluorescence | Q03530;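 active means fall in fluorescence gain of 50% or more versus controls, with final raw signal at or below 3038400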;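 further: plate controls were neutral control wells for no effect and wells lacking membranes for full effect; tested at 10 µM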
Target sequence (Q03530 whole entry, looked up): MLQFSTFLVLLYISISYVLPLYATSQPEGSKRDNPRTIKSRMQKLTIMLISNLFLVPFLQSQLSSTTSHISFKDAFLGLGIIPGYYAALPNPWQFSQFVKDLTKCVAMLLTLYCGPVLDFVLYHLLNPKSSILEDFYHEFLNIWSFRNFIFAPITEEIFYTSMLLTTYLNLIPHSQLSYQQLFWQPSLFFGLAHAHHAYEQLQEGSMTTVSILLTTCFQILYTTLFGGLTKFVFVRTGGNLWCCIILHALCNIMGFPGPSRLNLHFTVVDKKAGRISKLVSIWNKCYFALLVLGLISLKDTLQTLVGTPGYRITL
PABP FP inh – blocks human PABP binding to poly(A) RNA. 290,000 compounds, 1% hits. fluorescence polarization. AID 2014. inhibition, % at 35 µM;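 active means 50% or more with normal probe brightness, or confirmed in later tests; about a fifth of its hits are not listed in these tables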;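 further: calls also rest on retests at 20 µM and on dose response follow-up; controls were probe without protein and protein plus probe with vehicle; some compounds called inactive have numbers as strong as hits; many hits fall short of the cut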
Target sequence (P11940 whole entry, looked up): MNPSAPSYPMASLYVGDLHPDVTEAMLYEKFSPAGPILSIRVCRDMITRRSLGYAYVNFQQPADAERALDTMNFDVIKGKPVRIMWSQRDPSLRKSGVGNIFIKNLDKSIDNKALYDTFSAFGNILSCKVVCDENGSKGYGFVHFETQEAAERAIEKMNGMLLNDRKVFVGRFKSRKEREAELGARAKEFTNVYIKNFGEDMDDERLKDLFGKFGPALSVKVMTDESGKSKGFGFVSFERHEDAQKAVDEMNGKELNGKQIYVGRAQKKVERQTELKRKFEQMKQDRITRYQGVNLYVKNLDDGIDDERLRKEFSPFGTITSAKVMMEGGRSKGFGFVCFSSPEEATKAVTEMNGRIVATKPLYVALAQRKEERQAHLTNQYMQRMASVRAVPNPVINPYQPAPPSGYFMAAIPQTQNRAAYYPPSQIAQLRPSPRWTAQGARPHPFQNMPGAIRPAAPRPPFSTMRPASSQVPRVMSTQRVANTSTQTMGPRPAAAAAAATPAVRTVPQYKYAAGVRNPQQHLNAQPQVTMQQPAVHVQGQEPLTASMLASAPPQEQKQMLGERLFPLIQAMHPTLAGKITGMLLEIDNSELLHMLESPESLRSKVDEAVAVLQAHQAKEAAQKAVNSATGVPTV
HIV Env fusion – HIV envelope-mediated fusion inhibition; HeLa-JRFL Env/CEM21 cell fusion, luciferase; inhibition, % at 12.3 µM; 360,000 compounds, 1.1% hits; AID 651610;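 active means mean replicate inhibition score of at least 50 and every replicate individually at or above 50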;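 further: 0% = plate neutral controls and 100% = maraviroc near 300 nM; one replicate is shown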
Yeast UUG start – yeast start codon fidelity modulation; S. cerevisiae UUG-firefly luciferase reporter, luminescence/redox ratio; activity score, % at 18.7 µM; 350,000 compounds, 0.13% hits;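 active means replicate mean at a twofold rise or more, about +100% in these data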;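 further: firefly luciferase made from a UUG start codon reports start codon fidelity; reporter light over untreated wells divided by growth signal over untreated wells; some hits fall short of that in this replicate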
MT1-MMP act inh – inhibitors of human MT1-MMP activation | AID 651647 | GFP/RFP ratio change, % at 20 µM | HT1080 RFP-PRO-GFP cells, GFP/RFP ratio fluorescence, overnight; percent of plate control window, DMSO zero | 360,000 compounds, 0.061% hits | P50281;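 active means GFP/RFP ratio change of at least 30% with cell ATP level not reduced by more than half and red fluorescence within 50% of control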; further: strong numbers were not always called active
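system = RFP-PRO-GFP reporter HT1080 cells | dosing = 20 µM single dose, 1% DMSO | timing = overnight cell settling, then overnight compound exposure, 37 °C, 5% CO2 | read-out basis = GFP/RFP fluorescence ratio | controls = DMSO and RFP-L50D-GFP cell wells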
CSC inhib – blocks cancer stem cells; 300,000 compounds, 1.1% hits; cancer stem cell-like cells viability, luminescence; inhibition, % at 7.5 µM;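 active means mean at 75% or more and at least half the replicates too; tested in HMLE shEcad cells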;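 further: 0% = median of negative and 100% = median of positive control wells; the first replicate is given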
eIF4H FP inh – inhibitors of RNA binding by human eIF4H; inhibition, % at 35 µM; 290,000 compounds, 0.94% hits; Q15056; AID 2012; eIF4H fluorescence polarization binding assay;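 active means 50% or more with normal probe brightness, or confirmed in later tests; about a fifth of its hits are not listed in these tables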;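 further: calls also rest on retests at 20 µM and on dose response follow-up; 0% = protein and probe with vehicle and 100% = probe without protein; strong numbers were not always called active; many hits fall short of the cut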
eIF4H FP inh retest – also measured in eIF4H FP inh; calls as there; inhibition, %; compound at 20 µM; confirmation average;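 mean of two retest wells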
PABP FP inh retest – further read-out of PABP FP inh, marked with its call; inhibition, %; compound at 20 µM; confirmation repeats;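 mean of two retest wells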
MT1-MMP act inh RFP – also measured in MT1-MMP act inh; calls as there; RFP signal change, %; measured here: RFP expression control read;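 0 = vehicle wells; hits needed this value within 50% of zero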
* marks the source's active call; other numbers are inactive results; i = inactive; · = not tested or not shown; + = active, no number.

SMILES	Rce1 inh	PABP FP inh	HIV Env fusion	Yeast UUG start	MT1-MMP act inh	MT1-MMP act inh RFP	CSC inhib	eIF4H FP inh	others
Cc1ccc(S(=O)(=O)N2CCCCC2)cc1C(=O)N(C)CC(=O)Nc1cccc(F)c1	i	·	0	-1	8	-4	-14	·
Cc1cnc(NC(=O)CSc2nc3ccccc3s2)s1	i	5	-62	-22	4	5	-15	3
CCN(CC)CCCNC(=O)C1CCC(CNS(=O)(=O)c2ccc(Cl)cc2)CC1 (stereo unspecified)	i	-5	-6	-15	-5	1	6	6
CN(C)CCCNC(=O)c1ccc(CN(c2ccccc2)S(C)(=O)=O)cc1	i	-6	·	-16	2	2	-5	-3
COc1cccc(NC(=O)CN(C)C(=O)c2ccccc2CCc2ccccc2)c1	i	3	8	18	4	0	16	4
CN(C)CCOc1nc(-c2ccccc2)nc2c1oc1ccccc12	i	11	·	0	-6	-7	37	5
Cc1ccc(S(=O)(=O)N2CCN(c3nc(CN4CCCC4)nc4sc(C)c(C)c34)CC2)cc1	·	·	·	-5	-3	0	8	·
Cc1csc(SCC(=O)Nc2ccc(C)c(F)c2)n1	·	·	-18	2	-3	-1	·	·
O=C(Cn1cnc2ccccc21)OCC(=O)N1CCc2ccccc2C1	i	13	1	-14	-1	5	7	-4
CCCN(CCC)C(=O)Nc1ccc(F)cc1F	i	2	3	-10	-1	0	-12	-7
O=S(=O)(c1ccccc1)c1nc(-c2ccccc2F)oc1NCc1cccnc1	i	-8	22	·	9	4	4	-6
COc1ccc(-c2cc(-c3nnc(COC(=O)C4CC4C)o3)c3ccccc3n2)cc1OC (stereo unspecified)	i	2	-7	-9	4	-3	-3	0
O=C(CSc1ccccn1)N1CCN(c2ccccc2)CC1	i	5	·	·	-1	2	1	2
O=C(CC1CCCCC1)N1CCN(c2ccccn2)CC1	i	13	·	-15	-3	2	-7	2
COCCNCCCOc1ccc(C)cc1Br	i	15	10	·	0	3	-5	-1
CCOC(=O)c1cc(CC)sc1/N=C/C1=C(O)CCCC1=O	i	+	7	3	1	0	0	72	eIF4H FP inh retest=-13;PABP FP inh retest=84*
CCOc1ccc(N(CC(=O)NCCSCc2ccc(Cl)cc2)S(C)(=O)=O)cc1	i	0	80*	-11	3	-4	11	0
O=C(c1cccc(C(F)(F)F)c1)C1CCCN(C(=O)CCCN2CCCC2=O)C1 (stereo unspecified)	i	-8	30	3	-2	-2	-11	-10
CCOC(=O)c1c(N)sc(C(O)(C(F)(F)F)C(F)(F)F)c1-c1ccc(OC)cc1OC	i	-5	·	-14	-8	-7	11	-20
CCOc1ccc2nc(NC(=O)CSCC(=O)Nc3cc(C)on3)sc2c1	·	·	-66	-5	0	-2	6	·
CCN(CC)S(=O)(=O)c1ccc(C(=O)NCc2n[nH]c(=S)n2Cc2ccccc2)cc1	i	2	·	-7	15	3	-4	-4
CSCC[C@H](NC(=O)[C@H]1N2C(=O)c3ccccc3C2SC1(C)C)C(=O)NCc1ccncc1 (stereo partly specified)	i	-16	-2	4	1	2	-6	0
COc1cccc(C(=O)NCCS(=O)(=O)NCc2ccc(Cl)cc2)c1	i	·	-8	-3	5	-2	-15	·
CCN(CC)S(=O)(=O)c1ccc(NC(=O)COC(=O)c2ccc(Br)o2)cc1	i	-11	-140	-3	9	6	-3	-1
N#Cc1cc2c(nc1SC1CCCCC1O)CCCC2 (stereo unspecified)	i	-3	·	-7	3	0	-4	-8
c1ccc(-c2nc3nc4ccccc4nc3n2Cc2ccco2)cc1	i	12	-151	-15	-7	-5	8	1
CCCN(C(=O)c1ccc(N2CCCC2=O)cc1)c1c(N)n(Cc2ccccc2)c(=O)[nH]c1=O	i	·	4	-12	-1	1	0	·
Cc1cc(SCNC(=O)c2ccccc2)nc(C(C)C)n1	i	-6	-1	·	2	3	-3	-7
O=[N+]([O-])c1ccc(N2CCN(S(=O)(=O)c3ccc4ccccc4c3)CC2)cc1NCC1CCCO1 (stereo unspecified)	i	-2	3	-12	3	3	-2	-4
COc1cc(CN2C[C@@H](CO)O[C@@H](n3cnc4c(NC5CC5)ncnc43)C2)cc(OC)c1OC	·	·	3	-4	6	6	·	·
CCOC(=O)C1=C(C)Nc2ccccc2N=C1NC(=O)c1ccc(Cl)c(S(=O)(=O)N2CCCC2)c1	i	-9	20	·	-8	-2	-4	66	eIF4H FP inh retest=16;PABP FP inh retest=-5
CCOc1ccc(C(CC(=O)O)n2cnnn2)cc1 (stereo unspecified)	i	16	4	-1	4	2	-9	3
COc1ccc(N2CCN(C(=O)C3CCCN3S(=O)(=O)c3cccc4nsnc34)CC2)cc1 (stereo unspecified)	i	14	·	-6	1	2	-2	-6
Cc1cc(C)cc(NC(=O)c2nccnc2C(=O)O)c1	i	0	0	-15	1	-1	-9	-13
Cc1cc2oc(=O)cc(C)c2c(=O)o1	i	8	·	-11	-1	4	-8	0
O=C(COC(=O)CNC(=O)c1ccc(Cl)c([N+](=O)[O-])c1)NC(=O)c1ccccc1	i	10	1	5	-3	0	20	4
CC(=O)N1N=C(c2ccncc2)OC12CCCCC2	i	-2	·	-10	-3	3	-1	-10
O=C(Nc1ccc(NC(=O)c2ccc(Cl)c(S(=O)(=O)N3CCOCC3)c2)cc1)c1ccccc1	i	-2	7	-15	7	4	-10	0
Cc1cc(C)n2nc(C(F)(F)F)c(-c3ccccc3)c2n1	i	-2	-18	-7	-2	-4	-5	0
CCOc1ccccc1-c1nnc(SCC(=O)NC2CC3CCC2C3)n1CC (stereo unspecified)	i	2	·	-22	0	3	10	-7
O=C(CCC(=O)c1ccc(Oc2ccccc2)cc1)Nc1cccc(Cl)c1Cl	·	-2	7	·	-1	-3	13	-1
COc1ccc(/C=C/C(=O)NC2CCN(Cc3ccccc3)CC2)cc1OC	i	-8	25	-6	4	6	12	6
O=C(Oc1ccc[nH]c1=O)c1ccc(F)cc1	·	·	18	-11	4	7	·	·
O=C(CNC(=O)c1ccccc1F)NCCOc1ccccc1Cl	·	1	19	-15	1	0	·	2
COc1cccc(C2C3=C(CCCC3=O)Nc3[nH]n(-c4ccccc4)c(=O)c32)c1 (stereo unspecified)	i	2	-1	·	-7	-3	-4	2
COc1ccc(NC(=O)COC(=O)CC2CC3CCC2C3)c([N+](=O)[O-])c1 (stereo unspecified)	i	18	24	·	10	3	1	-13
CC(=O)Nc1cc(C)nn1-c1nc2ccccc2s1	i	0	-19	·	-3	2	5	0
Cc1ccc(NC(=S)NNC(=O)CSc2nnc(-c3ccc(Cl)cc3)n2C2CCCCC2)cc1	i	-1	0	·	2	-3	3	5
Cc1ccccc1CN(C)C1CCN(C)CC1	i	22	-16	-12	5	6	2	-3
Cn1c(=O)c2c(ncn2CC(N)=O)n(C)c1=O	·	-7	·	-2	-1	-1	-6	4
COc1cc(Cl)c(CNC[C@H]2O[C@@H](n3cnc(C(N)=O)n3)[C@H](O)[C@@H]2O)c(Cl)c1O	·	·	-9	-22	2	3	·	·
Cc1cccc(CCN(Cc2cc3cccc(C)c3[nH]c2=O)C(=O)N2CCOCC2)c1	i	-6	16	-8	0	-2	-12	7
COc1ccc([N+](=O)[O-])cc1NC(=O)c1cncc(Br)c1	i	5	12	·	-1	0	-9	4
Cc1cccc(OC(=O)Nc2ccc(C(=O)O)c(O)c2)c1	·	·	11	-11	-5	3	·	·
CC1CCC(NC(=O)c2cc(S(=O)(=O)N(C)C)ccc2N2CCCC2)CC1 (stereo unspecified)	i	·	-10	-6	-2	-2	-4	·
c1ccc(CNc2cnccn2)cc1	i	26	-7	6	-5	1	-4	-4
COc1ccc(N(C(=O)c2cnsn2)C(C(=O)NC2CCCCC2)c2ccncc2)cc1 (stereo unspecified)	·	9	17	·	5	2	-2	4
COc1ccc(/C=N/NC(=O)CCn2cnc3ccccc32)cc1	i	-2	7	-23	3	-2	-8	-6
Cc1cccc(N2C(=O)CC(Sc3nc(-c4ccccc4)c4cc(Cl)ccc4n3)C2=O)c1 (stereo unspecified)	i	5	·	-9	-4	-5	-1	3
Cc1ccc(Cn2nnc3c(=O)[nH]c(C4CCN(S(=O)(=O)Cc5ccccc5)CC4)nc32)cc1	i	8	-6	-18	5	4	-4	-9

The final 6 compounds of the section before open the next one:
SMILES	Rce1 inh	PABP FP inh	HIV Env fusion	Yeast UUG start	MT1-MMP act inh	MT1-MMP act inh RFP	CSC inhib	eIF4H FP inh	others
CC1CCC(NC(=O)c2cc(S(=O)(=O)N(C)C)ccc2N2CCCC2)CC1 (stereo unspecified)	i	·	-10	-6	-2	-2	-4	·
c1ccc(CNc2cnccn2)cc1	i	26	-7	6	-5	1	-4	-4
COc1ccc(N(C(=O)c2cnsn2)C(C(=O)NC2CCCCC2)c2ccncc2)cc1 (stereo unspecified)	·	9	17	·	5	2	-2	4
COc1ccc(/C=N/NC(=O)CCn2cnc3ccccc32)cc1	i	-2	7	-23	3	-2	-8	-6
Cc1cccc(N2C(=O)CC(Sc3nc(-c4ccccc4)c4cc(Cl)ccc4n3)C2=O)c1 (stereo unspecified)	i	5	·	-9	-4	-5	-1	3
Cc1ccc(Cn2nnc3c(=O)[nH]c(C4CCN(S(=O)(=O)Cc5ccccc5)CC4)nc32)cc1	i	8	-6	-18	5	4	-4	-9
Cc1ccc(CNC(=O)C2CCC(=O)N2Cc2ccc(C)cc2)cc1 (stereo unspecified)	i	4	2	-2	0	2	·	2
COc1ccc(NC2=Nc3cccc4cccc2c34)cc1OC	i	-3	-154	-15	-11	0	-6	8
CC(C)Oc1ccc(CNC(=O)C2CCN(C(=O)N3CCOc4ccccc43)CC2)cc1	i	-4	-8	13	-1	-9	-6	-1
COc1ccc(C(CNC(=O)Cn2[nH]c(=O)c3ccccc3c2=O)N2CCCC2)cc1 (stereo unspecified)	i	-5	-39	-11	-8	0	0	-8
O=C(c1ccco1)N1CCN(c2ncnc3c2[nH]c2ccc(Br)cc23)CC1	i	5	·	-9	11	-7	·	14
Cc1cc(C(=O)OCC(=O)NCc2ccc3c(c2)OCO3)c2ccccc2n1	i	7	0	·	0	1	-1	0
Cc1ccc(C(C)C)c(OCc2ccc(C(=O)N/N=C/c3ccc(O)c(O)c3)cc2)c1	i	-15	15	-13	-28	-22	109*	-1
CC[C@]12c3[nH]c4ccccc4c3CCN1C(=O)C(CC(=O)NC(C)(C)C)C[C@@H]2C(=O)N1CCN(C(=O)C2CC2)CC1 (stereo partly specified)	·	·	·	5	1	4	-9	·
CCN(CC)C(=O)Cn1cc(SCC(=O)NC2CCCC2)c2ccccc21	i	-8	9	·	-4	-3	-12	-5
COc1cc(C(=O)NNC(=O)c2cccc(Cl)c2)ccc1OCC(=O)N1CCOCC1	·	·	4	-2	-2	1	·	·
CC(C)n1c(N2CCN(C(=O)Nc3ccc(Cl)cc3)CC2)nc2ccccc21	i	14	-13	11	1	-9	-12	-11
CC1(C)Cc2c(sc3nn[nH]c(=O)c23)CO1	i	5	·	-16	3	3	-2	-5
CCS(=O)(=O)n1nc(-c2ccccc2)nc1SCc1ccccc1	i	-4	·	-9	-8	-4	-7	-4
CCOc1cc2[nH]c(=S)n(Cc3ccc(C(=O)NCCCN4CCOCC4)cc3)c(=O)c2cc1OCC	i	-11	-7	-11	1	1	·	-9
CC(c1ccco1)N(C(=O)c1ccc(C#N)cc1)c1ccccn1 (stereo unspecified)	i	1	-31	-25	4	2	6	0
Cn1nnc(NC(=O)c2ccccc2F)n1	i	-6	·	-12	5	5	-5	-7
C/C(=N\NC(=O)c1cc(-c2ccc(Br)s2)[nH]n1)c1ccncc1	i	4	13	-18	1	1	-1	-10
Cc1cc2cc(NC(=O)c3ccco3)ccc2[nH]1	i	-2	·	2	4	3	-5	-2

An excerpt; count on the stated rates, not on these rows.
